TRPV1 potentiator – HTS Assay for Compounds that Act as Potentiators of the Vanilloid Receptor 1. Transient receptor potential cation channel subfamily V member 1 (Homo sapiens), Q8NER1. TRPV1-expressing cells, Fluo-8 calcium influx, capsaicin EC20 potentiation; host cell line not named in the record; control for the full effect not named in the record. potentiation, % at 8.33 µM. 320,000 compounds, 0.02% hits; active means potentiation above 80%; inconclusive means 30% to 80%; inactive means below 30%; also: 0% is about no effect
Target sequence (Q8NER1 whole entry, looked up): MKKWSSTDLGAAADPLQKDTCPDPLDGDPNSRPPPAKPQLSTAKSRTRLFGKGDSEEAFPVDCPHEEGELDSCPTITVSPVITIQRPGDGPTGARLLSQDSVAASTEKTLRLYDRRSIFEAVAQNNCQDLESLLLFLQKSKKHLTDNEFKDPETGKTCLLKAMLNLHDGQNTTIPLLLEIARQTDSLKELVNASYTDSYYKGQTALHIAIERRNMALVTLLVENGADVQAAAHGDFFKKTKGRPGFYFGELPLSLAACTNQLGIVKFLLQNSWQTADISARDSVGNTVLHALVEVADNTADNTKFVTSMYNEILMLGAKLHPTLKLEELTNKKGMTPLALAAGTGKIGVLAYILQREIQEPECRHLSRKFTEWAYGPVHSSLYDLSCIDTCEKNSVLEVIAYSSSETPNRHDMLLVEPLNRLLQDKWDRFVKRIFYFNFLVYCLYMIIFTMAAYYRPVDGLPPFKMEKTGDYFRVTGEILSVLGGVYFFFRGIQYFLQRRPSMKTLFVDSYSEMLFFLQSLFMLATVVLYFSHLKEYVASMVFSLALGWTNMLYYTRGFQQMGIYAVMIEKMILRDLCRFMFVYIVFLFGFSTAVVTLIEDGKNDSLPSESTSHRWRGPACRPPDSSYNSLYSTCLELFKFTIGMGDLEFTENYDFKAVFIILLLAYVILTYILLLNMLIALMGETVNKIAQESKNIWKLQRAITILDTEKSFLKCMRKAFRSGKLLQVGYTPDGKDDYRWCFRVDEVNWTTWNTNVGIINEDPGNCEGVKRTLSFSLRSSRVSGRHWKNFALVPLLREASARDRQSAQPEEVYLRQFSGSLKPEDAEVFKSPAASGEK
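Fluo-8 calcium influx in TRPV1-expressing cells, kinetic read (ex 480/em 520 nm). Compound added and read 3 min for agonist activity, followed by capsaicin at EC20 final and 2 min further read for enhancement.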
Six1-Eya2 blk – qHTS Assay for Inhibitors of the Six1/Eya2 Interaction. AlphaScreen GST-Six1/His-Eya2 binding, biochemical; stronger effect = lower value; control for the full effect not named in the record. activity change, % (concentration not given with the values). 360,000 compounds, 0.56% hits. AID 651725, 2012; in the data active = activity change below about -65%; inconclusive = about -30% to -65%; inactive = above about -30%; also: % is scaled to controls: 0 for no effect and ±100 for the full control effect
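Compounds are tested against tagged Six1 and Eya2 proteins bridged by glutathione donor and nickel acceptor beads; after a one-hour incubation at 37 °C without light, AlphaScreen emission is recorded.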
TRPML1 agonist – qHTS for Agonists of the Human Mucolipin Transient Receptor Potential 1 (TRPML1); Mucolipin-1 (Homo sapiens), Q9GZU1; TRPML1-expressing cells, Ca2+ dye fluorescence, FDSS; host cell line not named in the record; reference of the full effect not given here; activation, % (concentration not given with the values); 410,000 compounds, 0.12% hits; AID 624414, 2012; in the data active = activation above about 50%; inconclusive = about 30% to 50%; inactive = below about 30%; also: 0% is about no effect; the text of the record puts the active cut at 80%
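Tetracycline-induced TRPML1-DL cells are seeded and incubated overnight before loading with a no-wash Ca2+ dye and quencher. Agonist activity is taken from the 110 s fluorescence read following compound pin-transfer on an FDSS, before EC80 54-4 challenge.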
D2 PAM – Beta-Arrestin HTS for Positive Allosteric Modulators of the Human D2 Dopamine Receptor: Potentiators | AID 624464, 2012 | D(2) dopamine receptor (Homo sapiens), P14416 | 360,000 compounds, 0.23% hits | potentiation, % (concentration not given with the values) | DiscoveRx D2 beta-arrestin cells, luminescence, 90 min; 100% = 57 uM dopamine signal; active = potentiation of 50% or more; inconclusive = 30% to 50%; inactive = 30% or less;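 also: tested on top of an EC20 dose of dopamine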
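PathHunter D2 cells, attached overnight at 37 deg C, received compound in DMSO plus dopamine at EC20 (50 nM final) for 90 min at 37 deg C. Beta-arrestin recruitment was read as luminescence after 1 h with detection reagent at ambient temperature.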
TRPML1 inh – qHTS for Inhibitors of the Human Mucolipin Transient Receptor Potential 1 (TRPML1). Mucolipin-1 (Homo sapiens), Q9GZU1. TRPML1-inducible cells, Ca2+ dye fluorescence, FDSS; stronger effect = lower value; inhibition of EC80 agonist-evoked calcium signal. activity change, negative = inhibition, % (test concentration not listed). 390,000 compounds, 0.02% hits. AID 624415, 2012; in the data active means activity change below about -50%; inconclusive means about -30% to -50%; inactive means above about -30%;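 also: stimulus is agonist 54-4 at its EC80 concentration; % is scaled to controls: 0 for no effect and ±100 for the full control effect; compound concentration not given in the record; the text of the record puts the active cut at -80%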
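TRPML1-DL cells, Tet-induced overnight (~16 h, 37 °C) at 1,500 cells/well, were loaded with Ca8 no-wash dye plus quencher for 45-90 min at room temperature. Compounds were pinned during FDSS kinetic reading; agonist 54-4 at EC80 (4 uM final) then added.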
CtBP-E1A blk – qHTS Assay for Inhibitors of the CtBP/E1A Interaction; AlphaScreen GST-E1A/His-CtBP binding, 1536-well; stronger effect = lower value; control for the full effect not named in the record; CtBP / adenovirus E1A interaction (AlphaScreen); 340,000 compounds, 0.49% hits; activity change, % (no concentration beside the values); in the data active means activity change below about -65%; inconclusive means about -30% to -65%; inactive means above about -30%; also: % is scaled to controls: 0 for no effect and ±100 for the full control effect
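Protein mix (5X: 125 nM each GST-E1A, His-CtBP) was incubated with pinned compound 2 h at 37 deg C in dark, in 50 mM Tris pH 8.0 buffer with 300 mM NaCl. Glutathione donor and nickel acceptor beads followed; AlphaScreen signal read after 1 h.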
* marks the source's active call; other numbers are inactive results; ? = inconclusive; nt = not tested or not shown; & = joins results of further samples.

Short keys – A = TRPV1 potentiator; B = Six1-Eya2 blk; C = TRPML1 agonist; D = D2 PAM; E = TRPML1 inh; F = CtBP-E1A blk
1. CC(C)(CCC(=S)N1CCOCC1)c1ccccc1
  A: nt	B: -5	C: 1.4	D: -5	E: 4	F: 10

2. Cc1ccc(CNn2cn[nH]c2=S)cc1
  A: nt	B: 3	C: -0.8	D: -18	E: 2	F: nt

3. Cc1ccc(C(C)C)c(OCC(O)CNC2CCCC2)c1 (centres undefined)
  A: 5	B: -1	C: -0.6	D: -6	E: 18	F: nt

4. Cc1nc(C(F)(F)F)ccc1C(=O)N1CCC1(C)C(=O)NS(=O)(=O)c1ccccc1Cl (centres undefined)
  A: nt	B: 8	C: 0.1	D: -5	E: nt	F: 3

5. CCCCCCCCCCCCCCCC(=O)NCCO
  A: -4	B: -4	C: -0.6	D: 2	E: 12	F: 4

6. CC1(C)C=Cc2cc(-c3coc4cc(O)cc(O)c4c3=O)cc(O)c2O1
  A: nt	B: -8	C: nt	D: -13	E: nt	F: -1

7. CC(=O)c1ccc(NC(=O)CSc2nnc(C3CC3)n2C2CC2)cc1
  A: nt	B: -1	C: -0.2	D: -2	E: -2	F: -13

8. C[C@@H](NC(=O)/C(C#N)=C/c1ccc(O)c(O)c1)c1ccccc1
  A: 13	B: -7	C: 1.1&0.5	D: -14	E: -8	F: 0

9. O=C(NCc1ccco1)Nc1cccs1
  A: -3	B: -6	C: -0.8	D: -23	E: -1	F: 0

10. O=C(CN1C(=O)C2CCCCC2C1=O)Nc1nc(-c2ccccn2)cs1 (centres undefined)
  A: 11	B: -84*	C: -0.1	D: 6	E: -9	F: -84*

11. NC(=O)c1ncn([C@@H]2O[C@H](CNCc3ccc(OCC(=O)Nc4ccccn4)cc3)[C@@H](O)[C@H]2O)n1
  A: nt	B: 2	C: -0.7	D: -4	E: -10	F: 1

12. CC(=O)Oc1ccc2c(c1)OC(c1ccccc1)CC21CC(C)(C)NC(=S)N1 (centres undefined)
  A: -17	B: 0	C: 0.9	D: -4	E: 0	F: -16

13. C=CCNC(=O)CN1CCC(n2c(C)nc3cc(C(F)(F)F)ccc32)CC1
  A: -1	B: 5	C: 0.4	D: -8	E: -1	F: -10

14. O=C(N/N=C/c1ccncc1)c1ccccc1[N+](=O)[O-]
  A: -1	B: 28	C: 1.5	D: -7	E: -19	F: 0

15. CC1CN(S(=O)(=O)c2cccc(C(F)(F)F)c2)C(C)N1C(=O)N1CCOCC1 (centres undefined)
  A: 28	B: 3	C: 1.1	D: 4	E: 3	F: 10

16. O=C(N/N=C/c1c[nH]c2ccccc12)c1cccc(O)c1
  A: -13	B: -8	C: 2.2	D: -6	E: 14	F: -14

17. O=C(Cc1cn2ccsc2n1)Nc1nc2c(s1)CN(Cc1ccccc1)CC2
  A: 8	B: -15	C: 0.7	D: -3	E: -2	F: -10

18. O=C(CSc1nc2ccccc2o1)N1CCN(c2ccccc2)CC1
  A: -19	B: 1	C: 0.8	D: -3	E: 31	F: -3

19. CC(=O)Nc1ccc(-c2cn3ccsc3n2)cc1
  A: -1	B: -7	C: 0.1	D: 16	E: -6	F: -6

20. Cc1ccc(C)c(OCCC(=O)OCC(=O)NC(=O)NC2CCCC2)c1
  A: -14	B: -2	C: 0.7	D: -25	E: 10	F: 2

21. O=C(O)c1ccc(Nc2nc(-c3ccccc3)nc3ccccc23)cc1
  A: 10	B: ?	C: 3.2	D: -8	E: 22	F: nt

22. CC(=O)c1sc(N/N=C\c2c(O)ccc3ccccc23)nc1C
  A: nt	B: -21	C: 3.8	D: -4	E: 2	F: ?

23. CCOc1cc(C2Nc3ccccc3C(=O)N2c2ccccc2)ccc1O (centres undefined)
  A: nt	B: -2	C: 0.5	D: -7	E: 13	F: -16

24. C[C@H](CO)N1C[C@H](C)[C@@H](CN(C)S(=O)(=O)c2cn(C)cn2)Oc2c(NS(=O)(=O)c3cn(C)cn3)cccc2C1=O
  A: nt	B: 5	C: -0.2	D: -2	E: -12	F: 6

25. CC(C)C(Sc1nc(-c2ccccc2)cc(-c2ccccc2)c1C#N)C(=O)O (centres undefined)
  A: 5	B: -11	C: 1.5	D: -3	E: 11	F: 1

26. CCC(C)OC(=O)C1=C(C)NC2=C(C(=O)C(C(=O)OC)C(C)C2)C1c1ccc(N(C)C)cc1 (centres undefined)
  A: 3	B: ?	C: -0.3	D: 3	E: -7	F: ?

27. O=C(N/C(=C\c1ccc(F)cc1)C(=O)N1CCCCCC1)c1ccccc1
  A: 19	B: 11	C: 0.9	D: -2	E: 13	F: 4

28. CC(C)[C@H](NC(=O)NCCc1ccccc1)C(=O)O
  A: 4	B: 2	C: -0.6	D: -3	E: 7	F: -3

29. CCCCN(C(=O)CCN1C(=O)C2CC=CCC2C1=O)c1c(N)n(CCCC)c(=O)[nH]c1=O (centres undefined)
  A: nt	B: 3	C: 2.0	D: -2	E: -2	F: 3

30. CC(=O)Nc1ccc(S(=O)(=O)Nc2cccn(Cc3ccc(C)cc3)c2=O)cc1
  A: -16	B: -5	C: -0.4	D: 1	E: -11	F: -1

3 compounds already listed, ordered by length of the SMILES, lowest first.
Short keys – A = TRPV1 potentiator; B = Six1-Eya2 blk; C = TRPML1 agonist; D = D2 PAM; E = TRPML1 inh; F = CtBP-E1A blk
23. CCOc1cc(C2Nc3ccccc3C(=O)N2c2ccccc2)ccc1O (centres undefined)
  A: nt	B: -2	C: 0.5	D: -7	E: 13	F: -16

17. O=C(Cc1cn2ccsc2n1)Nc1nc2c(s1)CN(Cc1ccccc1)CC2
  A: 8	B: -15	C: 0.7	D: -3	E: -2	F: -10

26. CCC(C)OC(=O)C1=C(C)NC2=C(C(=O)C(C(=O)OC)C(C)C2)C1c1ccc(N(C)C)cc1 (centres undefined)
  A: 3	B: ?	C: -0.3	D: 3	E: -7	F: ?

In another format: entries from further up.
9. O=C(NCc1ccco1)Nc1cccs1
  TRPV1 potentiator: -3 | Six1-Eya2 blk: -6 | TRPML1 agonist: -0.8 | D2 PAM: -23 | TRPML1 inh: -1 | CtBP-E1A blk: 0

19. CC(=O)Nc1ccc(-c2cn3ccsc3n2)cc1
  TRPV1 potentiator: -1 | Six1-Eya2 blk: -7 | TRPML1 agonist: 0.1 | D2 PAM: 16 | TRPML1 inh: -6 | CtBP-E1A blk: -6

(continued)
Short keys – A = TRPV1 potentiator; B = Six1-Eya2 blk; C = TRPML1 agonist; D = D2 PAM; E = TRPML1 inh; F = CtBP-E1A blk
31. CN(C)CCC1(c2ccccc2)CCN(C)C1=O (centres undefined)
  A: nt	B: -1	C: 0.0	D: -8	E: 7	F: -6

32. Cc1ccc(-n2c(SCC(=O)N3CCCc4ccccc43)nnc2-c2cccnc2)c(C)c1
  A: -4	B: 14	C: 2.8	D: -12	E: 40	F: -6

33. Cc1cc(C)nc(NNC2=CC(=[N+]3CCCC3)CCC2)n1
  A: ?	B: 0	C: 0.9	D: -5	E: 15	F: -29

34. Cc1cc(=O)oc2cc(OCC(=O)N/N=C/c3cc([N+](=O)[O-])ccc3O)ccc12
  A: 3	B: -3	C: 1.6	D: -12	E: 9	F: 0

35. CC(C)C(=O)Nc1cccc(C(=O)Nc2nnc(C(C)(C)C)s2)c1
  A: 7	B: 7	C: 1.1	D: -3	E: 14	F: 4

36. CC(CN1CCOCC1)C(=O)c1ccccc1 (centres undefined)
  A: -4	B: 4	C: 1.1	D: -4	E: 14	F: -3

37. C=CCSc1ncccc1C(=O)NCc1ccccc1
  A: 8	B: 2	C: 0.4	D: -1	E: -7	F: -2

38. COCCNC(=S)N1CCC(C(=O)c2ccc(C)cc2)CC1
  A: 4	B: 5	C: 0.1	D: -12	E: -1	F: -10

39. C=CCOc1ccccc1NC(=O)CN1C(=O)CNC1=O
  A: 5	B: 13	C: 0.0	D: -4	E: ?	F: 2

40. CCOC(=O)C1(CCOC)CCN(C(=O)Cc2ccc3ccccc3c2)CC1
  A: -16	B: -2	C: -0.7	D: 3	E: -3	F: 2

41. NS(=O)(=O)c1ccc(CCNC(=O)C2CCC(CNS(=O)(=O)c3ccc(Br)s3)CC2)cc1 (centres undefined)
  A: 4	B: -3	C: 0.3	D: -6	E: 14	F: -10

42. O=C(NCc1ccco1)/C(=C\C=C\c1ccccc1)NC(=O)c1ccco1
  A: -5	B: -6	C: nt	D: -11	E: nt	F: -1

43. CCOC(=O)NC(=O)COC(=O)CCCc1nc2ccccc2s1
  A: 0	B: 6	C: 1.8	D: 6	E: 16	F: -6

44. OCCCNc1nccc(-c2cc(Nc3cccc(Cl)c3)ncn2)n1
  A: -27	B: 0	C: 3.5	D: 5	E: 16	F: -8

45. Cc1nc(C/C(=N\N)c2ccc(O)cc2O)cs1
  A: -19	B: 0	C: 0.0	D: -22	E: -10	F: 0

46. COCCNC(=O)c1ccc(Cn2c(SCC(=O)NCC3CCCO3)nc3ccc(Br)cc3c2=O)cc1 (centres undefined)
  A: 11	B: 8	C: -0.5	D: -2	E: -3	F: -4

47. CCSc1nnc(SCC(=O)NC2CCCCC2)s1
  A: 6	B: -19	C: -0.2	D: -2	E: -8	F: -11

48. CCOC(=O)c1ccc(NC(=O)COc2ccccc2CNC2CCCC2)cc1
  A: 4	B: -3	C: 1.2	D: -15	E: 0	F: -1

49. Cc1ccc(-n2nnnc2SCC(=O)c2cc(C)n(-c3cc(C)on3)c2C)cc1
  A: -2	B: -6	C: -0.4	D: -5	E: 21	F: 9

50. CCN(C[C@H]1N[C@@](CC)(C(=O)OC)[C@H]2C(=O)N(C)C(=O)[C@@H]12)C(=O)NC(C)C
  A: nt	B: 7	C: 2.6	D: -1	E: 14	F: 11

51. CC1CC(=O)NN=C1c1ccc(N(C)C)c([N+](=O)[O-])c1 (centres undefined)
  A: 9	B: 7	C: 0.6	D: -8	E: 0	F: 47

52. COc1cc(Nc2c3c(nc4ccccc24)CCCC3)cc(OC)c1OC
  A: -2	B: -8	C: -1.0	D: -11	E: 18	F: -3

53. CC(C)N1CCN(Cc2ccc3c(c2)Cc2ccccc2-3)CC1CCO (centres undefined)
  A: 6	B: 1	C: 0.1	D: -6	E: -14	F: nt

54. CSc1ccccc1NC(=O)Nc1cccc(F)c1
  A: -8	B: 8	C: -0.6	D: -15	E: 10	F: 3

55. CC(C)NC(=O)c1nn(C)c2ccccc12
  A: -11	B: 2	C: -0.3	D: -16	E: 4	F: 4

Screens (PubChem BioAssay)
